HPGD block: HPGD (human) dehydrogenase inhibition | purified HPGD, NADH fluorescence kinetic, PGE2 substrate | Potency, µM, for inactives: at the top dose activity change, negative = inhibition, most hits filed as inhibitors | hit rate 4.3% among 150,000; active = well fitted inhibition curve with a large enough effect (not every such curve was filed as active); inconclusive = small, poorly fitted or top-dose-only effect, or another doubt; inactive = no such curve, though single readings can be large or run the other way;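 further: top concentration of the series not given in the record; plate controls included wells without enzyme; inactives centre near -10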
Target sequence (P15428 whole entry, looked up): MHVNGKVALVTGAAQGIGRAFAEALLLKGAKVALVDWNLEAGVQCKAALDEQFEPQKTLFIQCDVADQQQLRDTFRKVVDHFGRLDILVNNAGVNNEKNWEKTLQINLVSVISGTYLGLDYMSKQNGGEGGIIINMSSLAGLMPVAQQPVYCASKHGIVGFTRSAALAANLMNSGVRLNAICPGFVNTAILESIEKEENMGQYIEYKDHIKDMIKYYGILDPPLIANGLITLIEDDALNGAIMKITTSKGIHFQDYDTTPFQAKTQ
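NADH formation kinetics: reaction with 30 uM PGE2 and 1 mM NAD+ (final), 20 nM enzyme, Tris-HCl pH 8 with Tween 20, after 15 min compound preincubation at room temperature. Fluorescence change, last versus first of five reads.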
An asterisk follows results filed as active; ? = inconclusive; & = joins results of further samples. On the % scale 0 is the no-effect control and ±100 the full control effect; potency means the concentration at half of the fitted maximal effect.

SMILES	HPGD block
Cc1csc(NC(=O)CCc2nc3ccccc3s2)n1	-8%
CC1Cc2ccccc2N1C(=O)CSc1nnnn1Cc1ccccc1 (stereo not drawn)	-6%
O=C(Cn1nnc2c(sc3nc4c(c(-c5ccccc5)c32)CCC4)c1=O)c1ccccc1	-16%
Cn1c(C(=O)N2CCCCCC2)cc2c(=O)n(C)c3ccccc3c21	2.8µM*
CCc1c(C)[nH]c2c1C(=O)[C@H](CN1CCOCC1)CC2	6%
N#CCSCC(=O)Nc1ccccc1	-17%
COc1ccc(CSCCN)cc1Cl	3%
CCOC(=O)c1c(CC(C)C)csc1NC=O	-19%
Cc1ccc(S(=O)(=O)N2CCOCC2)cc1NC(=O)CN1CCN(c2ccc(O)cc2)CC1	5%
Cc1ccc(-c2c(C)n([O-])c3c([n+]2=O)CCCCC3)o1	-7%
CCn1c(SCC(=O)c2cc(OC)ccc2OC)nc2c1c(=O)n(C)c(=O)n2C	-4%
COc1ccc(C(=O)NCC(=O)OCC(=O)c2cc(OC)c(OC)c(OC)c2)cc1OC	-10%
CCC(C)NC(=O)C1CCN(S(=O)(=O)N2CCCC2)CC1 (stereo not drawn)	-3%
CCN(c1ccccc1)S(=O)(=O)c1ccc(OCc2c(C)noc2C)cc1	-7%
CC(=O)N1CCN(S(=O)(=O)c2cccc(C(=O)OCC(=O)NC(=O)c3cccn3C)c2)CC1	3%
O=C(COc1ccc(Br)cc1)NNC(=S)NC(=O)c1ccccc1[N+](=O)[O-]	-4%
C=CCNc1cc(C(F)(F)F)nc(-c2ccccn2)n1	-10%
COCC(=O)N1CCC2(CCN(Cc3nccs3)CC2)CC1	-7%
COc1ccc(CCNC(=O)CCCCCN2C(=O)c3ccccc3C2=O)cc1	-13%
CN(C)c1ncc2nc(CCc3ccccc3)c(=O)n(C[C@H]3CCCO3)c2n1	?
COc1ccc(OC)c(S(=O)(=O)N(C)CC(=O)N2CCN(c3ccccc3F)CC2)c1	-5%
CCOC(=O)C(C(=O)OCC)N(C#N)c1nc(OC)nc(N(C)C)n1	-3%
Cc1c(OCc2nn[nH]n2)ccc2c3c(c(=O)oc12)CCC(C)C3 (stereo not drawn)	?
COC(=O)c1cn(CCOc2ccc(C)cc2)c2ccccc12	-20%
O=C(NC1CCCC1)NS(=O)(=O)c1ccccc1Cl	-8%
COc1ccccc1OCC(=O)Nc1cccc(N(C)S(C)(=O)=O)c1	-9%
Cc1cccc(N(C(=O)c2nsc(Cl)c2Cl)C(C(=O)NC2CCCC2)c2ccc(O)cc2)c1C (stereo not drawn)	-7%
Cn1cnc([N+](=O)[O-])c1Oc1cccc(O)c1	-13%
CCN1CCN(C(=O)C2(NC(=O)Nc3ccccc3Cl)CCCCC2)CC1	-3%
CCn1c(CNC(=O)Cc2ccc(OC)cc2)nnc1SCC(=O)Nc1nccs1	-4%
CCCn1c(SCC(=O)Nc2cccc(C(=O)OCC)c2)nnc1-c1ccoc1C	-4%
CC1CCc2ccc(F)cc2N1S(=O)(=O)c1cccs1 (stereo not drawn)	4%
COCCn1c(Cc2ccccc2)nnc1SCC(=O)Nc1cc(C)on1	2%
Cc1[nH]c2ccccc2c1C(=O)COC(=O)C1CC(=O)N(Cc2ccco2)C1 (stereo not drawn)	-10%
COc1cc(-c2nnc(SCC(=O)N(Cc3ccccc3)C(C)(C)C)o2)cc(OC)c1OC	-11%
Cc1ccc(NC(=O)COC(=O)c2ccc(OCc3c(C)noc3C)cc2)cc1S(=O)(=O)N1CCOCC1	-4%
CCCNC(=O)CN(CCc1ccccc1)S(C)(=O)=O	0%
O=C(Nc1ccccc1)C(Cc1ccccc1)NC(=O)C12CC3CC(CC(C3)C1)C2 (stereo not drawn)	-3%
N#C/C(C(=O)N1CCOCC1)=C1/SC(Cc2ccc(F)cc2)C(=O)N1c1ccccc1 (stereo not drawn)	-13%
Cn1nnnc1SCc1ccccc1F	-6%
COc1cc2c(cc1NC(=O)CN1CCN(S(=O)(=O)c3ccccc3F)CC1)oc1ccccc12	?
CC(C)=CCC/C(C)=C/CC/C(C)=C/CC/C(C)=C/CC/C(C)=C/CC/C(C)=C/CC/C(C)=C/CC/C(C)=C/CC/C(C)=C/CO	-11%
CCN(CC)S(=O)(=O)c1ccc(Cl)c(C(=O)OC)c1	-7%
CCOC(=O)c1ccc(-n2ncc(C(=O)OCC)c2N)cc1	-5%
Cc1cc(C)c(S(=O)(=O)N(CC(=O)N2CCCC2)C2CCCCC2)c(C)c1	-4%
Cc1cccc(N2CCN(C(=O)c3ccccc3NC(=O)C3CCCCC3C(=O)O)CC2)c1 (stereo not drawn)	-9%
COc1cccc(C2=NOC(C(=O)N3CCN(c4ccccc4)CC3)C2)c1OC (stereo not drawn)	-12%
Cc1cc(Cl)ccc1N1C(=O)CC(NNC(=O)c2cccnc2)C1=O (stereo not drawn)	-9%
O=C1C(Cc2cccc([N+](=O)[O-])c2)SC(=Nc2ccccc2)N1c1ccccc1 (stereo not drawn)	-10%
O=C(NCc1ccccn1)C(F)(F)C(F)(F)C(=O)NCc1ccccn1	-16%
Cc1cccc(-n2c(SCC(N)=O)nc3c(c2=O)C2(CCCC2)Cc2ccccc2-3)c1	-14%
Clc1cccc(OCCN2CCOCC2)c1	6%
CC(C)C(=O)Nc1nnc(CSCc2ccccc2F)s1	-12%
CCOc1cc(NC(=S)NCc2ccco2)c(OCC)cc1NC(=O)CC	1%
CCCC(=O)Nc1ccc(C(=O)NCCCn2ccnc2)cc1	0%
O=C(CN1CCCc2ccccc21)N/N=C/c1c(O)ccc2ccccc12	?
O=C(c1cc2nc(-c3ccc(F)cc3)cc(C(F)(F)F)n2n1)N1CCOCC1	?
CC1=C(C#N)c2nc(N)c(C#N)c(C)c2/C1=C\c1ccc(C)cc1	?
O=C(CS(=O)(=O)c1c[nH]c2ccccc12)Nc1ccc2c(c1)OCCO2	-2%
COC(=O)c1cccc(NC(=O)CSc2nc3cccnc3n2C)c1	-4%

Another view of some results above:
structure,HPGD block
CCCC(=O)Nc1ccc(C(=O)NCCCn2ccnc2)cc1,0%
O=C(CN1CCCc2ccccc21)N/N=C/c1c(O)ccc2ccccc12,?
O=C(c1cc2nc(-c3ccc(F)cc3)cc(C(F)(F)F)n2n1)N1CCOCC1,?

Next part.
SMILES	HPGD block
CC(C)CC1(C(=O)O)NC(c2ccccc2O)C2C(=O)N(C(C)C)C(=O)C21 (stereo not drawn)	-4%
CCOC(=O)c1ccc(N(CC(=O)NC2CCCC2)C(=O)CNC(=O)c2ccco2)cc1	-6%
COc1ccc(CCNC(=O)c2cnn3cccnc23)cc1OC	-18%
O=C(Cn1nc(C(F)F)cc1C(F)F)N/N=C/c1ccc2c(c1)OCO2	-11%
COc1ccc2c3c(ccc2c1)N[C@H](C(=O)O)CC3	?
CCN(CC)c1ccc(NC(=O)c2cccnc2)cc1	-9%
Cc1cc(C)cc(N(C(=O)CNC(=O)c2cccs2)C(C(=O)NC2CCCC2)c2cccnc2)c1 (stereo not drawn)	-11%
O=C(Cc1ccc(Cl)cc1)NNS(=O)(=O)c1ccc([N+](=O)[O-])cc1	-12%
C[C@]12CCC(=O)C=C1CC[C@@H]1[C@@H]2C(=O)C[C@@]2(C)[C@H]1CC[C@]2(O)C(=O)CO	-4%&-11%
O=C(O)CC1S/C(=N/N=C/C=C/c2ccccc2[N+](=O)[O-])NC1=O (stereo not drawn)	-14%
CCOc1ccc(NC(=O)CC(c2ccccc2)c2ccc(F)cc2)cc1 (stereo not drawn)	-16%
Cc1ccc(S(=O)(=O)C2(C(=O)N3CCCCC3C)CC2)cc1 (stereo not drawn)	-13%
CCOc1ccc(NC(=O)c2nnn(CC(=O)Nc3ccccc3OCC)c2N)cc1	-12%
COc1cc(N(C)C)c(NC(C)=O)cc1C(=O)O	-9%
Cc1nc(C)c(C(=O)C2=C(O)C(=O)N(CCN(C)C)C2c2ccccc2)s1 (stereo not drawn)	-20%
CCOC(=O)N(CC)OC(=O)Nc1ccc(Cl)cc1	-8%
COc1ccc(S(=O)(=O)N[C@H](C(=O)O)C(C)C)cc1	-7%
N#Cc1nc(COc2ccc(F)cc2)oc1N1CCC(Cc2ccccc2)CC1	-21%
O=C(Nc1cc(Cl)cc(Cl)c1)C(c1ccccc1)N1CCCCC1 (stereo not drawn)	-3%
COc1ccc(CSCC(=O)N/N=C/c2ccc(OCC(=O)NCc3ccco3)cc2)cc1	?

Rewritten as labelled records: part of the list above.
COc1ccc(OC)c(S(=O)(=O)N(C)CC(=O)N2CCN(c3ccccc3F)CC2)c1
  HPGD block: -5%

CCOC(=O)C(C(=O)OCC)N(C#N)c1nc(OC)nc(N(C)C)n1
  HPGD block: -3%

Cc1c(OCc2nn[nH]n2)ccc2c3c(c(=O)oc12)CCC(C)C3 (stereo not drawn)
  HPGD block: ?

COC(=O)c1cn(CCOc2ccc(C)cc2)c2ccccc12
  HPGD block: -20%

(continued)
SMILES	HPGD block
CCOc1ccc(-c2nc(-c3ccncc3)no2)cc1OCC	-16%
CNC(=O)Nc1ccccc1F	-13%
CCC(CC)C1C(C#N)=C(N)Oc2n[nH]c(-c3ccccc3)c21 (stereo not drawn)	-6%
CCc1ccc(N2CC(C)Cn3c2nc2c3c(=O)n(CCN3CCOCC3)c(=O)n2C)cc1 (stereo not drawn)	-18%
CCC1(C)N=c2c(c(=O)n(C)c(=O)n2C)=NO1 (stereo not drawn)	-12%
O=C(Oc1ccccc1)N1CCC2(CC1)CCN(c1ncccn1)CC2	-16%
O=[N+]([O-])c1cccc(/C=N\N=C2c3ccccc3-c3ccccc32)c1O	28µM*
CC(=O)SCC(C)C(=O)NCc1ccccc1 (stereo not drawn)	-22%
CCN(CC)C(=O)c1sc(NC(=O)c2ccc(C)c([N+](=O)[O-])c2)c(C#N)c1C	28µM*
COc1cccc(Oc2ccc(C(F)(F)F)cc2NC(=O)c2cccc(F)c2)c1	-16%
COc1ccc(OC)c(C2/C(=C(/O)c3cnn(-c4ccccc4)c3C)C(=O)C(=O)N2CCN(C)C)c1 (stereo not drawn)	-18%
CCn1nnnc1SCC(=O)c1ccc(C)cc1C	-5%
COc1ccc(CC(=O)NCC(=O)N/N=C/c2ccco2)cc1	-10%
Cn1c(=O)[nH]c(=O)c2c1nc(N1CCCCCC1)n2CC(N)=O	-5%
S=C(NCCC(c1ccccc1)c1ccccc1)Nc1ccccc1Cl	-10%
Cc1cccc(C)c1N(CC(=O)NN=C1CCCCCC1)S(C)(=O)=O	-6%
CCOC(=O)n1ccc(C(=O)Nc2ccccc2F)n1	-3%
CC(C)C[C@@H](CC(=O)N[C@@H](CCC(=O)O)CC(=O)O)NC(=O)[C@@H]1CNCC[C@H]1NC(=O)C[C@H](CCCN)NC(=O)C[C@H](CO)NC(=O)[C@@H]1CCCC[C@H]1N	-6%
C=CCNS(=O)(=O)c1cccc(C(C)=O)c1	-6%
C=CCn1c(SCC(=O)N2CCN(c3ccc(F)cc3)CC2)nnc1-c1cccs1	-11%
COc1ccc(C(=O)c2ccccc2)c(O)c1O	-21%
CCCCc1nc2c(c3c1C[C@H](C)OC3)CN(C(=O)Cc1cccs1)CC2	-7%
COc1ccc(C2CC(=O)C3=C(C2)Nc2ncnn2C3c2ccccc2C)cc1 (stereo not drawn)	-6%
CCCCOC(=O)Oc1ccc2c(=O)c(Oc3cccc(C)c3)coc2c1	?
C=CCC(NCc1ccco1)c1ccc(OC)cc1OC (stereo not drawn)	-3%
O=C(COC(=O)/C=C/c1cccs1)Nc1nc(-c2ccccc2)cs1	-9%
Nc1nnc(C(c2ccccc2)c2ccccc2)s1	0%
O=c1c(O)c(-c2ccccc2)oc2cc(O)cc(O)c12	-28%
CC(C)Nc1nnc(SCC(=O)Nc2ccc3c(c2)C(=O)c2ccccc2C3=O)s1	-19%
O=C(CNC(=O)c1cccc(F)c1)N/N=C/c1cccc([N+](=O)[O-])c1	-15%
CC(C)C(=O)Nc1cccc(C(=O)N2CCCCC2C)c1 (stereo not drawn)	-10%
NC(=O)C(Cc1ccccc1)NS(=O)(=O)c1ccc(N2CCCC2=O)cc1 (stereo not drawn)	-9%
CC(/C=N/Nc1nc2ccccc2[nH]1)=C\c1ccccc1	-19%
Nn1c(SCC(=O)N2CCCc3ccccc32)nnc1-c1ccc(Cl)cc1	-3%
COc1cc(=O)n(C)c2c(OC[C@@H](O)C(C)(C)O)cccc12	-10%
N#CCN1CCC/C1=C\[N+](=O)[O-]	-19%
COCc1cc(CN2CCCC2)c(O)c2ncccc12	-9%
COC(=O)c1ccccc1NC(=S)NC(NC(=O)COc1ccccc1)C(Cl)(Cl)Cl (stereo not drawn)	22µM*
CCCCCNC(=O)c1ccc2c(=O)[nH]c3c(C(=O)NCC4CCCO4)sc(=S)n3c2c1 (stereo not drawn)	11µM*
O=C(CSc1ccc2ccccc2n1)c1ccc2c(c1)OCO2	8.9µM*
Cc1cc(C)n(C(=O)c2cccc(S(=O)(=O)N3CCOCC3)c2)n1	-12%

Arranged by heavy-atom count (low to high): part of the list above.
SMILES	HPGD block
N#CCN1CCC/C1=C\[N+](=O)[O-]	-19%
Nc1nnc(C(c2ccccc2)c2ccccc2)s1	0%
COCc1cc(CN2CCCC2)c(O)c2ncccc12	-9%

High-throughput results as filed in PubChem BioAssay.

These rows are one share of the data (hit frequency here may not be typical).
